Mtb MbtI inh – blocks the Mycobacterium tuberculosis siderophore enzyme MbtI; AID 493033; 0.89% of 100,000 active; purified MbtI enzyme, fluorescence intensity read-out; P9WFX0; inhibition, %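 (about 17 µg/mL by stock and volumes)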;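 active = above 50% in both replicates, above 80% if mildly self-fluorescent; inactive = the rest, strongly fluorescent compounds included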;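 note: 0% = mean of negative and 100% = mean of positive controls; one replicate is shown; some compounds called inactive have numbers as strong as hits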
Target sequence (P9WFX0 whole entry, looked up): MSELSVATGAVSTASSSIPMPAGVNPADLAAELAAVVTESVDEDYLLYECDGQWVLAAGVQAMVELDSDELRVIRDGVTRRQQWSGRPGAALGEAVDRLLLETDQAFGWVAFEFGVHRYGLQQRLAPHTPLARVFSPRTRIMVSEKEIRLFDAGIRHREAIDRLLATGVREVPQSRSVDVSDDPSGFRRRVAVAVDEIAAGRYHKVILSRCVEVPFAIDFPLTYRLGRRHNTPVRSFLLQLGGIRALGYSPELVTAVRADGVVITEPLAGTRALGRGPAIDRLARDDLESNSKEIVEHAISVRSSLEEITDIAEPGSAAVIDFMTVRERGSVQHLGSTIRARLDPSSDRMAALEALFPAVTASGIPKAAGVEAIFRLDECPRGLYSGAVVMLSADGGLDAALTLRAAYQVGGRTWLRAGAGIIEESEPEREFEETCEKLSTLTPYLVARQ
* hit, by the source's call. The list is partial. The share of hits here may be higher or lower than overall.

SMILES,Mtb MbtI inh
COc1ccc(C(NC(=O)Cc2cc3ccccc3[nH]2)C(=O)Nc2ccc3c(c2)OCCO3)cc1 (stereo not given),-2
COc1cc(N2CCCC2)c(OC)cc1CO,2
COc1ccc(C2C(C(=O)O)CCC(=O)N2c2ccc(OC)cc2)cc1 (stereo not given),-14
COc1ccc2oc(=O)c(NC(=O)C3CCCCC3)cc2c1,23
N#Cc1nc2c(C#N)c(N)n(CC3CCCO3)c2nc1C#N (stereo not given),-171
c1coc(-c2nnc3n2C2(CCCC2)Cc2ccccc2-3)c1,-24
C=CCOC(=O)COc1cc2oc(=O)c3c(c2cc1Cl)CCC3,-20
C=CCC1Cc2ccccc2C(C)N1 (stereo not given),4
CCn1c(C)nc2cc(S(N)(=O)=O)ccc21,-11
CCC(=O)Nc1c(C)n[nH]c1C,-3
NS(=O)(=O)c1ccc(CCNC(=O)c2csc3c2CCCC3)cc1,-17
CC(=O)OC(COc1ccccc1C)Cn1cnc2ccccc21 (stereo not given),-6
Cc1ccc2cccc(OCC(=O)c3ccc(C)c(C)c3)c2n1,-3
Clc1ccccc1OCCCN1CCNCC1,-25
CC(C)Cn1c(=O)oc2ccccc21,-12
O=C(COC(=O)CCc1c[nH]c(=O)[nH]1)Nc1ccccc1,0
Cc1cc(=O)oc2cc(OC(=O)CSc3nc(Cc4ccccc4)cc(=O)[nH]3)ccc12,92
CC(=O)N1CC2(C)CN(C(C)=O)CC(C)(C1)C2O (stereo not given),-7
CCOC(=O)c1cc2n(c1N)-c1ccccc1C2=O,1
NC(CO)c1ccccc1 (stereo not given),-4
C=CCN(CC=C)S(=O)(=O)c1ccc(C(=O)Nc2nnc(COC)o2)cc1,7
O=C(CSCC(=O)NC1CCCC1)Nc1ccccc1,-11
CC(=O)N1c2ccccc2C(=O)C1Cc1ccccc1 (stereo not given),-8
Cc1nc2ncnn2c(C)c1CCC(=O)Oc1ccccc1,-8
CCCC1OC23CCCCC2C(C#N)(C(=N)O3)C1(C#N)C#N (stereo not given),15
CC1(C)Cc2c(c(-c3ccco3)[nH]c(=O)c2C#N)CO1,-32
COc1ccc(CNCC2CCC(C(=O)O)CC2)cc1 (stereo not given),-6
CCOC(=O)C1C(=O)NCC2CCCC21 (stereo not given),-7
CC(C)CNC(=O)c1cccc(C(=O)NCC(C)C)c1,0
COc1ccc(C(=O)c2cc(CC(=O)O)c(-c3ccc(OC)cc3)s2)cc1,-7
CN(CCc1ccccn1)Cc1ccc2c(c1)OCO2,-5
Cc1ccc2cc3c(NCc4ccc(F)cc4Cl)n[nH]c3nc2c1,-18
Nc1nonc1NC(=O)COC1CN2CCC1CC2 (stereo not given),-8
COC(=O)c1ccc(N2CCCC2=O)cc1O,-4
Nc1nnc(CS(=O)(=O)c2ccc(Cl)cc2)o1,-11
COc1ccccc1NC(=O)C1C2c3ccccc3C(c3ccccc32)C1C (stereo not given),-10
CCN(CC)Cc1c(O)ccc2c(-c3ccccc3)cc(=O)oc12,-7
CSc1nc2sc3c(c2c(=O)[nH]1)CCc1ccccc1-3,-6
Cc1nc(N)[nH]c(=O)c1CCC(=O)OCC(C)C,-11
CCCOc1ccc(C(=O)NCC2(c3ccccc3)CCOCC2)cc1,-3
CC(C)=CCCC(C)N1CCCCC1 (stereo not given),-11
O=C(O)c1ccc(CN2CCN(Cc3ccc(C(=O)O)o3)CC2)o1,-8
CCOc1ccccc1N(C)C(=O)c1nn(-c2ccc(OC)cc2OC)c(=O)c2ccccc12,-9
COc1c(F)c(F)c(OC)c(F)c1F,-3
COc1ccc(NC(=O)Cn2c(-c3cscn3)nc3ccccc32)cc1,39
COC(=O)Cn1ncn2cccc2c1=O,0
NC(CSCc1cccc(Br)c1)C(=O)O (stereo not given),-17
CCOC(=O)c1ccc(-n2c(=S)sc3c(=O)[nH]c(C)nc32)cc1,30
O=C(O)C1COc2ccccc2O1 (stereo not given),-4
CCn1c(C(C)O)nc2ccccc21 (stereo not given),-1
CCN(CC)CCn1c(OC)cc(=O)[nH]c1=O,-13
Oc1c(Br)cc(CN2CCOCC2)c2cccnc12,-13
Cc1cc(=O)[nH]c(N2CCc3ccccc3C2)n1,-1
NC(=O)C1CC12c1ccccc1-c1ccccc12 (stereo not given),0
O=C1CC(c2ccccc2)CN1 (stereo not given),-13
CC(=O)Nc1[nH]c(O)c2ccccc12,27
NC(=O)c1cccc2c(=O)oc3ccccc3c12,-23
Cc1ccccc1OCC(=O)NCCC1=CCCCC1,-1
O=C(O)C(O)c1ccc(Br)cc1 (stereo not given),-8
COC(=O)c1cc(S(=O)(=O)NC2CCN(Cc3ccccc3)CC2)cn1C,-9

Later entries
SMILES,Mtb MbtI inh
CSc1ccc(-c2ncnn2-c2ccc(Cl)cc2)cc1,3
CC(C)Cn1cnc2oc(-c3ccccc3)c(-c3ccccc3)c2c1=N,-39
Cc1ccc2nsnc2c1NC(=O)c1cccc(Cl)c1,3
CCOC(=O)CCc1cccc2c1CCC2=O,-8
COc1ccc(-c2nc3ccccc3o2)cc1NC(C)=O,-311
CCOC(=O)c1cc2c(=O)n3ccccc3nc2n(C)c1=NC(=O)/C=C/c1ccccc1,140
N=c1n(CC(N)=O)c2ccccc2n1Cc1ccc(Cl)c(Cl)c1,6
COc1ccc(NC(=O)CC2Sc3ncnn3C2=O)cc1 (stereo not given),100*
COc1cccc(C(NC(=O)c2ccccc2)c2ccc3cccnc3c2O)c1 (stereo not given),-9
C=CCn1c(SCCC(=O)O)nnc1-c1cccnc1,3
CC(=O)N1CCC2(CC1)C1CN(C(C)=O)CC=C1C(C#N)=C(N)C2(C#N)C#N (stereo not given),8
O=C(O)CCC(=O)Nc1ccc(-c2nc3ccc(NC(=O)CCC(=O)O)cc3[nH]2)cc1,93
COC(=O)c1cn(NC(=O)/C(C)=C/c2ccccc2)c(=O)c2ccccc12,-2
Cc1c(C(=O)Nc2ccc(C(=O)O)cc2)cnn1C,-4
N#CC(C#N)C(C#N)(C#N)C1CCCC1=O (stereo not given),66
O=C(O)C(CC1COc2ccccc2O1)C(=O)O (stereo not given),2
CCCC1C(=O)CC(C#N)(C#N)C(C#N)(C#N)C1C (stereo not given),-8
COc1ccccc1-n1nnnc1SCC(=O)NC1CCCC1,-4
COC(=O)c1cc(=O)n(Cc2ccccc2)c(=NCc2ccccc2)s1,-12
O=C(CCSc1nnc2scc(-c3ccccc3)n12)NCc1ccc2c(c1)OCO2,-14
CCOC(=O)N1CCN(C(=O)CC(c2ccccc2)c2ccccc2)CC1,-18
COC(=O)c1ccc(Nc2nc(=O)c3cccnc3s2)cc1,-6
O=c1cc(-c2ccccc2)c2c(=O)n(-c3ccccc3)[nH]c2[nH]1,5
CS(=O)(=O)c1nc2ccccc2[nH]1,-5
c1ccc(C2CCCNC2)cc1 (stereo not given),8
Cc1cc2nc(C(C)(C)C)cc(N)n2n1,-45
O=C(NCc1ccccc1Cl)c1nsc2ccccc12,4
Cc1[nH]c(C(=O)NCCCN2CC(C)CC(C)C2)c(C)c1C(=O)NC1CCCCC1 (stereo not given),-7
O=C(Nc1ccccc1Cl)C1CCN(Cc2cnn(-c3ccccc3)c2-n2cccc2)CC1,-12
O=C(CN1CCN(S(=O)(=O)/C=C/c2ccccc2)CC1)NC(=O)NCc1ccccc1,45
COC(=O)OC1C=CS(=O)(=O)C1 (stereo not given),-10
O=C(O)CN1C(=O)c2ccccc2C1=O,-11
Cc1cc(C)c2c(C)nn(C3CCCCC3)c2n1,-12
CC(C)OC(=O)CNc1n[nH]c(=O)[nH]c1=O,-4
CCOC(=O)C1C(=O)CC(O)(c2ccccc2)CC1c1ccccc1 (stereo not given),5
CCC(O)(C#CCN1CCOCC1)CC,-8
Cc1cccc(NC(=O)CC(c2ccccc2)c2ccccc2)n1,-9
CC1=C(C(=O)Nc2cc(C)ccn2)C(c2ccc(C)cc2)C2=C(CCCC2=O)N1 (stereo not given),-126
COc1ccccc1OCc1ccc(C(=O)NC(C)(C)C)o1,2
O=C(Cc1ccc(-n2c(=O)[nH]c3ccsc3c2=O)cc1)Nc1ccccc1,6
N#Cc1cn(Cc2ccccc2)nn1,-3
Fc1cc(F)nc(NCc2ccccc2)n1,-13
O=c1c2ccccc2nc2ccc(N3CCOCC3)nn12,-8
CCOCc1cn(CC(=O)c2ccc(CC)cc2)c(C)nc1=N,-5
CC(=O)N(CCC(Cc1ccccc1)c1ccco1)C(=O)Cc1ccco1 (stereo not given),-4
CN(C)S(=O)(=O)N(C)Cc1ccccc1,-4
C=CCC(c1ccco1)N(C(C)=O)c1ccccc1 (stereo not given),-12
CN1CCN(CCN2CCn3c2nc2ccccc23)CC1,-18
CC(C)CNC(=O)NC1(C(F)(F)F)Oc2ccc(Cl)cc2O1 (stereo not given),0
O=c1[nH]c2ccccc2c(N2CCOCC2)c1N1CCOCC1,-16
COc1ccccc1Cn1c(=O)c(C)nc2cccnc21,-12
Cc1cc2nc(C)n(CCCN)c2cc1C,-3
COc1ccc(N)c2nc(C)c(C)nc12,-5
CC1=C(C)CC(C(=O)c2ccccc2)C(C(=O)O)C1 (stereo not given),-4
CC(C)NCC(O)COc1c(F)cc(Br)cc1F (stereo not given),-16
CCOc1ccc(-n2cnnn2)cc1S(=O)(=O)N1CCCCC1,-8
COc1ccc(Cc2nnc3c4cnn(-c5ccc(C)cc5)c4ncn23)cc1,17
Cc1ccccc1C1CCC(=O)NC1 (stereo not given),-12
CCc1cccc2c(N=O)c(O)[nH]c12,4
Cc1ccc(CNC(=O)C2c3ccccc3C(=O)N3CCc4ccccc4C23)cc1 (stereo not given),-10

Additional results follow:
SMILES,Mtb MbtI inh
NCc1ccsc1,-15
CCCCn1c(-c2nonc2N)nc2ccccc21,4
Cc1cc(S(=O)(=O)NCCc2ccccc2)c(C)s1,4
CC(c1ccccc1)N1Cc2ccccc2C1 (stereo not given),-8
CC(C)C(NCc1c(Cl)cccc1Cl)C(=O)O (stereo not given),-8
CN(C)c1ccc(CNCc2ccco2)cc1,1
CCOC(=O)Cn1nc2n(Cc3ccc(C)cc3)c3ccccc3n2c(=O)c1=O,-1
C=CCC(Nc1ccc(F)cc1)c1ccco1 (stereo not given),4
Cc1ccc(-c2nn(CC(N)=O)c(=O)c3ccccc23)cc1,8
CCN(CC)S(=O)(=O)c1ccc(C2CNC(=O)C2)cc1 (stereo not given),-11
Cc1csc(N2CCc3ccccc32)n1,-2
CCCc1ccc(C(=O)Nc2cnc3ccccc3c2)cc1,1
COc1cccc(NC(=O)C2CC(=O)n3cnnc3S2)c1 (stereo not given),96*
Cc1ccc(C(=O)N2CCCCC2C(=O)O)o1 (stereo not given),-16
C=CCN1C(=O)C(C)(C)Nc2ccccc21,4

A second format for part of the listing above.
CCOC(=O)C1C(=O)NCC2CCCC21 (stereo not given)
  Mtb MbtI inh: -7
CC(C)CNC(=O)c1cccc(C(=O)NCC(C)C)c1
  Mtb MbtI inh: 0
COc1ccc(C(=O)c2cc(CC(=O)O)c(-c3ccc(OC)cc3)s2)cc1
  Mtb MbtI inh: -7
CN(CCc1ccccn1)Cc1ccc2c(c1)OCO2
  Mtb MbtI inh: -5

3 compounds already listed, ordered by formula weight, ascending:
SMILES,Mtb MbtI inh
C=CCN1C(=O)C(C)(C)Nc2ccccc21,4
Cc1ccc(C(=O)N2CCCCC2C(=O)O)o1 (stereo not given),-16
CCOC(=O)Cn1nc2n(Cc3ccc(C)cc3)c3ccccc3n2c(=O)c1=O,-1

Next section.
SMILES,Mtb MbtI inh
Nc1ccc(-c2nc(-c3ccccc3)nc3ccccc23)cc1,-137
CC(C)CC(C1=C(O)CCCC1=O)C1=C(O)CCCC1=O,-2
CCOc1ccc(S(N)(=O)=O)cc1-c1nc2c(C(C)(C)C)nn(C)c2c(=O)[nH]1,62
O=C(NCCn1cc(SCC(=O)N2CCCCC2)c2ccccc21)c1ccccc1F,18
O=C(CSCc1ccc(F)cc1)N1CCOCC1,0
Cc1ccc(N2CCN(C(=O)C(C)N3C(=O)c4ccccc4C3=O)CC2)cc1 (stereo not given),-7
Cn1c(=N)n(CC(N)=O)c2ccccc21,3
O=S(=O)(c1cccs1)n1cccn1,-15
CC(C)COC(=O)N1CCCC1C(=O)Nc1ccccc1 (stereo not given),-8
NC(=O)c1cc(-c2ccc3c(c2)OCO3)no1,-8
CCOC(=O)C1CSC(CC(=O)Nc2ccccc2)C(=O)N1 (stereo not given),-6
CC(C)Oc1ccccc1NC(=O)c1cccc(C(=O)Nc2ccccc2OC(C)C)c1,-3
CCOC1(OCC)N=C(N)C2(C#N)C3(CCCCC3)C12C#N (stereo not given),-6
CCOc1ccc2[nH]c(C)cc(=O)c2c1,62
Cc1ccc(C(CC(=O)N2CCNCC2)c2ccccc2)c(O)c1C (stereo not given),-6
CSc1nc2ccccc2n1CCOc1ccccc1,-14
CCCC(CCC)n1[nH]c(=O)c2c(C)cc(C)nc21,-13
C=CCn1c(SCC(=O)NCCCN2CCOCC2)nnc1-c1sc2ccccc2c1Cl,-2
CCOC(=O)Cn1nc(-c2ccccc2)ccc1=O,-1
Cc1nc2ccc(S(=O)(=O)NCC(=O)O)cc2s1,-12
CC(=O)N(CCC#N)c1ccccc1,-14
CCOC(=O)Cn1cc(Br)c(=O)[nH]c1=O,-7
CCC(C)(C(=O)NC1CCCCC1)N(Cc1ccco1)C(=O)Cc1cccs1 (stereo not given),3

Screening results as filed in PubChem BioAssay.
